Assay outcomes deposited in PubChem by National Center for Advancing Translational Sciences (NCATS).
Vaccinia mCherry: qHTS for Stage-Specific Inhibitors of Vaccinia Orthopoxvirus: mCherry Reporter Primary qHTS; Vaccinia virus mCherry reporter infection, fluorescence; about a quarter of the inactives have no number; Potency, µM (series often up to 36.5 µM), without a hit: at the highest dose activity change, negative = inhibition, usual class: inhibitors; 310,000 compounds, 0.63% hits; AID 720579, 2013; active = well fitted inhibition curve with a large enough effect; inconclusive = small, poorly fitted or top-dose-only effect; inactive = no such curve, though single readings can be large or run the other way; tested in A549 cells; further: nearly all actives have a fitted effect of over 35% in size; inactives centre near -10
VACV Venus inh: qHTS for Stage-Specific Inhibitors of Vaccinia Orthopoxvirus: Venus Reporter Primary qHTS | Potency, µM (series often up to 36.5 µM), for the others: at the highest dose activity change, negative = inhibition, actives largely listed as inhibitors | Vaccinia virus Venus reporter expression, fluorescence | AID 720580, 2013 | 330,000 compounds, 0.46% hits; active means well fitted inhibition curve with a large enough effect; inconclusive means small, poorly fitted or top-dose-only effect; inactive means no such curve, though single readings can be large or run the other way; tested in A549 cells; further: nearly all actives have a fitted effect of over 30% in size; inactives centre near -10
* marks the source's active call; other numbers are inactive results; i = inactive; ? = inconclusive; . = not tested or not shown; & = joins results of further samples; [ ] = dose if it differs, or a comment. On the % scale 0 is the no-effect control and ±100 the full control effect; potency means the concentration at half of the fitted maximal effect. The order is random, and some 0.86% of all compounds hit somewhere here.

Under each structure: Vaccinia mCherry	VACV Venus inh
CCc1c(C)nc(SCC(=O)N2CCN(c3ccccc3)CC2)[nH]c1=O
→ i	-14%
COc1ccc(S(=O)(=O)N(Cc2nc(-c3cccc(C)c3)no2)C2CCCCC2)cc1
→ -14%[7.34 µM]	-8%[7.34 µM]
O=C(c1cncc(Br)c1)N1CCN(c2ccc(N3CCOCC3)nn2)CC1
→ i	-6%
Cc1cc(Cl)ccc1N=C1N=C(N)c2ccccc21
→ ?	?
CCOc1ccc(C(C(=O)NC2CCCCC2)N(CCOC)C(=O)c2snc(C(N)=O)c2N)cc1 (stereo not given)
→ -11%	-6%
COCCCN1C(=O)C(=O)/C(=C(/O)c2ccc(OCC(C)C)cc2)C1c1cccnc1 (stereo not given)
→ .	-20%
Cc1ccc2[nH]c(C(=O)O)c(NC(=O)c3ccccc3[N+](=O)[O-])c2c1
→ -14%	5%
CCOC(=O)C1CCN(CC(=O)Nc2ccc(OC)c(Cl)c2)CC1
→ -3%	-3%
COc1ccc([C@H]2CC(=O)C=C(c3ccc4c5c(cccc35)CC4)C2)cc1
→ -21%	-23%
Cc1oc2ncn(CC(C)C)c(=O)c2c1C(=O)NCCCN1CCCCC1C (stereo not given)
→ -10%	-7%
c1ccc(-c2cnnc(N3CCOCC3)n2)cc1
→ .	2%
CC1CCCN(Cc2c(O)ccc3c(=O)c(-c4nc5ccccc5s4)c(N)oc23)C1 (stereo not given)
→ -20%	-19%
COc1ccc(NC(=O)CSc2ccc(-c3ccco3)nn2)c(OC)c1
→ -7%	-23%
Cc1ccc(C(=O)Nc2cccc(-c3nc4ncccc4o3)c2)cc1
→ -29%	-22%
CCN(CC)S(=O)(=O)c1ccc2nc(NC(=O)c3ccccc3OC)sc2c1
→ -29%	-25%
CCCCOC(=O)NC(NCC(O)c1ccccc1)(C(F)(F)F)C(F)(F)F (stereo not given)
→ i	-13%
COc1ccc(OC)c(CN2C(=O)CN(S(C)(=O)=O)CC2(C)C(=O)NC(C)C)c1 (stereo not given)
→ i	0%
COc1ccc(-c2cc(-c3ccccc3)nc3c2COc2ccccc2-3)cc1
→ -2%	-8%
CCc1c(C)sc(NC(=O)c2cc(-c3ccc(O)cc3)on2)c1C#N
→ i	-10%
c1ccc(CC2CCCNC2)cc1 (stereo not given)
→ -5%	3%
Cc1cc(NC(=O)CSc2nc3ccccc3s2)no1
→ -13%[1.46 µM]	-7%
CCOC(=O)C1CCN(C(=S)Nc2ccc(C)cc2)CC1
→ -25%	-5%
Cc1ccc(S(=O)(=O)N2[C@@H](c3ccccc3F)C(C(=O)O)=CC[C@H]2c2cccc(C)c2)cc1
→ i	-13%
CSc1ncccc1C(=O)NNC(=O)c1csc(N2CCOCC2)n1
→ i	-8%
CC(=O)NNC(=O)CCn1nnc(-c2ccc(Cl)cc2)n1
→ -24%	-19%
O=C(O)CCn1c(Cc2ccccc2)nc2ccccc21
→ -1%	-10%
CCOc1ccccc1NC(=O)COC(=O)CC(C)(C)CC1=NS(=O)(=O)c2ccccc2N1
→ -12%	-14%&-28%
COc1ccc(CC(=O)O/N=C(\N)Cc2cccc3ccccc23)cc1
→ -24%	-4%
COc1ccc2c(c1OC)C(=O)OC2N1C(=O)CC[C@H]1C(=O)NCC1CCCO1 (stereo not given in full)
→ -10%	-12%
CCCCC(=O)Nc1nc(-c2ccc(S(=O)(=O)N3CCOCC3)cc2)cs1
→ -1%	-19%

Other results.
Under each structure: Vaccinia mCherry	VACV Venus inh
O=C(COc1ccc([N+](=O)[O-])cc1)NCc1ccncc1
→ 8%	7%
COCCCNC(=O)CC1C(=O)N(Cc2ccccc2)C(C)c2nc3ccccc3n21 (stereo not given)
→ -13%	-16%
Cc1cc(NC(=O)CSc2nnc(-c3ccc4c(c3)OCCO4)o2)no1
→ .	-22%
Cc1cc2c(cc1C)NC1=C(N2)OC(c2cccc(O)c2)C1=O (stereo not given)
→ 0%	?
Cc1ccc(CNC(=O)C2CCCN(c3ncnc4onc(-c5ccc(F)cc5)c34)C2)cc1 (stereo not given)
→ -9%	-7%
O=C(CNC(=O)c1ccccc1)OCC(=O)c1ccccc1Cl
→ i	-5%
CC1(C)CC(=O)c2cc(C(=O)Nc3ccccc3Cl)c(=O)n(-c3ccc(Cl)cc3)c2C1
→ 1%	-12%
Cc1cc(C)c2c(=O)n(CC(=O)NCCCN3CCN(c4ccccc4F)CC3)sc2n1
→ i	-25%
CCn1c(=O)c2cc(C(=O)NC3CCCCCC3)sc2c2ccccc21
→ -10%	-10%
CCN(CC)c1ccc(/C=N\NC(=O)c2cccc3cc[nH]c23)cc1
→ -17%	?
COC(=O)CC/C(O)=C1\C(=O)CC(C)(C)CC1=Nc1ccccc1OC
→ -19%	?
CCOP(=O)(c1ccccc1)c1nc(-c2ccc(F)cc2)oc1N1CCCCC1 (stereo not given)
→ .	?
NC1CC2CCCCC2CC1(O)c1ccccc1 (stereo not given)
→ i	-4%
Nc1nc(-c2ccccc2)c(-c2ccccc2)o1
→ i[7.34 µM]	-12%[7.34 µM]
Cc1nnc(SC(=O)N2c3ccccc3Sc3ccccc32)s1
→ 10µM*	?
C/C(=N/NS(=O)(=O)c1ccccc1)c1c[nH]c2ccccc12
→ -15%	-13%
Cc1ccc(-c2nc3cccnc3s2)cc1NC(=O)C1c2ccccc2Oc2ccccc21
→ -4%	-12%
CC(C)N1CCC(N2CCN(Cc3ccc(Oc4ncccn4)cc3)CC2CCO)CC1 (stereo not given)
→ -11%	-6%
Cc1cc([N+](=O)[O-])nn1Cc1ccc(C(=O)N/N=C/c2ccccc2)cc1
→ -13%	-20%
Cc1cc(Oc2cc(NN3CCCCC3)c([N+](=O)[O-])cc2[N+](=O)[O-])ccc1[N+](=O)[O-]
→ ?	-7%
Cc1cc(C(=O)N/N=C/c2ccc(O)c(O)c2O)c(C)n1-c1ccccc1
→ -24%	-5%
CC(C)NC(=S)Nc1ccc2cn[nH]c2c1
→ -8%	2%
CN1Cc2c(N3CCOCC3)nc(SCCC#N)c(C#N)c2CC1(C)C
→ 1%	2%
Cc1ccc(NC(=O)c2cnc(SCC(=O)N3CCOCC3)n(C)c2=O)cc1C
→ -10%	-4%
COc1ccccc1N1CCN(c2ccc(-c3nc(-c4ccccc4C)no3)cc2[N+](=O)[O-])CC1
→ 1%	1%
CCc1nccn1CCC(=O)NC1CC(C)(C)Cc2c1cnn2-c1ccc(C)cc1 (stereo not given)
→ -6%	-24%
COc1ccc(NC2CCCN(C(=O)CCCn3cncn3)C2)cc1OC (stereo not given)
→ -15%	-6%
ON=C1/C(=N\O)CC2(C/C1=N/O)OCCO2
→ 9%	7%
C/C(CCc1ccco1)=N/NC(=O)CCC(=O)Nc1cccc(Cl)c1
→ -22%	-12%
C[C@@H]1CN([C@@H](C)CO)C(=O)c2cc(NC(=O)CCC(F)(F)F)ccc2O[C@H]1CN(C)Cc1ccc(Cl)c(Cl)c1
→ ?	?

(listing goes on)
Under each structure: Vaccinia mCherry	VACV Venus inh
Cn1c(SCC(=O)Nc2ccccc2O)nnc1-c1ccco1
→ 0%	-16%
COC(=O)[C@H](Cc1ccccc1)NC(=O)Cn1cnc(C(=O)Nc2ccc(C)c(C)c2)n1
→ i	-17%
Cc1ccc(C)c(NC(=S)N(Cc2ccc(Cl)cc2)Cc2ccc(C(=O)O)cc2)c1
→ -13%	-10%
CC(=O)N1CC(=O)Nc2ccc(F)cc2C1c1ccccc1 (stereo not given)
→ -8%	-14%
O=[N+]([O-])c1cnn(-c2nc(-c3cccs3)cc(C(F)(F)F)n2)c1
→ -2%	-3%
COCc1cc(C)nc2sc3c(=O)n(-c4ccccc4C(F)(F)F)nnc3c12
→ -10%	-14%
Cc1nc(NC(=O)c2cccs2)ccc1Br
→ -3%	-8%
CCOC(=O)N1CCN(C(=O)c2cc3c(-c4cccc(OC)c4)nn(C)c3s2)CC1
→ -11%	-22%
Cc1nc2ccc(NC(=O)/C=C/C(=O)O)cc2nc1C
→ 5%	0%
O=S(=O)(NCc1ccccc1)c1cccc2cccnc12
→ i	-12%
O=C(Nc1nc(=O)n(C(=O)c2cccc(C(F)(F)F)c2)s1)c1ccccc1
→ i[7.34 µM]	-14%[7.34 µM]
CC(C)N(Cc1nc(-c2ccc(Cl)cc2)no1)C(=O)C12CC3CC(CC(C3)C1)C2
→ .	-23%
COc1cccc(-c2cn3c(n2)sc2cc(C(=O)NC4CCCCC4)ccc23)c1
→ ?	-29%
O=C(O)c1cccc2c1C(=O)c1ccccc1-2
→ i	3%
Cc1ncc2c(c1CNS(=O)(=O)N(C)C)CCN(C(=O)c1ccc(-c3ccc(F)cc3)cc1)C2
→ -9%	2%
CCCCC(=O)N/N=C/c1ccc(Sc2cccc3cccnc23)o1
→ .	?
CCCN1C(=O)C(O)(CC(=O)c2ccc3c(c2)OCCO3)c2ccccc21 (stereo not given)
→ .	-30%
Cc1c(Cc2ccccc2)c(=O)oc2cc(OCc3ccc(C(=O)O)cc3)ccc12
→ 3%	-20%
C=CCOC1COC2C(OCC=C)COC12 (stereo not given)
→ -10%	-4%
COc1cccc(-c2nc(CS(=O)(=O)CC(=O)Nc3cccc(C)c3C)c(C)o2)c1
→ -16%	?
Cc1nc(N)sc1N=Nc1ccccc1C(F)(F)F
→ -22%	-22%
CC1=CC(=O)Nc2cncnc2N1
→ i	-3%
CCOc1ccccc1C(=O)NCC(=O)NCC1CCCCC1
→ 22%	-2%
CSc1ccccc1OCc1cc(C(=O)NCCCc2ccccc2)no1
→ -14%	-23%
COc1ccc(C(=O)N=c2nc(-c3ccccc3)n(-c3ccccc3)s2)cc1
→ 22%	-8%
C=CCn1c(C)cc(C(=O)CN2NS(=O)(=O)c3ccccc3C2=O)c1C
→ -17%	-18%
CN1CCN(C(=O)CCNC(=O)Cn2cnc3ccccc3c2=O)CC1
→ -19%	-12%
C=CCN1CC2(c3ccccc3)CN(CC=C)CC(c3ccccc3)(C1)C2=O
→ -10%	-16%
COCCCn1c(=N)c(C(=O)NC2CCCC2)cc2c(=O)n3cccc(C)c3nc21
→ -8%	-11%
Cc1ccnc(NC(=O)CCC(=O)N(CC(=O)NCc2ccc(F)cc2)Cc2ccco2)c1
→ -21%	-19%

(continued)
Under each structure: Vaccinia mCherry	VACV Venus inh
COc1ccc(C)cc1NC(=O)C1CC1c1ccccc1 (stereo not given)
→ i	-20%
CCOc1ccccc1-n1c(SCC(=O)N2CCOCC2)nc2ccccc2c1=O
→ i	-16%
CCN(CC)c1c([N+](=O)[O-])c(=O)n(C)c2ccccc12
→ i	-22%
COC(=O)Cc1ccc(N(Cc2ccccc2F)S(=O)(=O)c2ccc(Cl)cc2)cc1
→ ?	13%
Cc1ccc(NC(=O)CCc2nnc3n(CC(C)C)c(=O)c4ccccc4n23)cc1C
→ i	-19%
O=C(c1cccs1)C1CN2CCC1CC2 (stereo not given)
→ .	13%
O=C(CSc1nc(-c2ccc(F)cc2)cs1)NCC1CCCO1 (stereo not given)
→ i	-1%
Cc1c(C(=O)N2CCC(C)CC2)oc2ccc3c(c12)C(O)CC1(CCCCC1)O3 (stereo not given)
→ -4%[7.34 µM]	-26%[7.34 µM]
Cc1ccnc(NC(=O)c2ccccc2NC(=O)c2ccccc2)c1
→ -12%	1%
CCCCCCSc1ccc([C@@H]2[C@@H]3C(=O)N(CC)C(=O)[C@@H]3[C@]3(C(=O)OC)CCCCN23)cc1OC
→ -16%	?
COc1cccc2cc(-c3nnc(-c4ccccc4)o3)c(=O)oc12
→ -9%	-18%
O=S(=O)(N/N=C/c1cccnc1)c1ccc(Cl)c(Cl)c1
→ 3%	11%
COc1cccc(CNC(C)C(=O)Nc2ccc3c(c2)OCCO3)c1 (stereo not given)
→ -8%	2%
COc1ccc(-c2nn(-c3ccccc3)cc2C(=O)NCC2CCCO2)cc1 (stereo not given)
→ -27%	-25%
COc1ccc(NC(=S)NNC(=O)c2ccccc2OC(F)F)cc1
→ -27%	-21%
Cc1ccc(NC(=O)COC(=O)c2ccc(-n3nc(C)cc3C)cc2)c(F)c1
→ -4%	-4%
CCOC(=O)c1ccccc1NC(=O)c1ccc(F)cc1
→ -2%	-2%
Cc1ccc2c(c1)N(C(=O)CCC(=O)NCCCN(C)Cc1ccccc1)CCO2
→ ?	-26%
Cn1c(NCc2c[nH]c3ccccc23)nc2ccccc21
→ -6%	-16%
CCn1c(=NC(=O)CS(=O)(=O)c2ccccc2)sc2cccc(OC)c21
→ i	-18%
Cc1ccc(SCCN2C(=O)NC(C)(C)C2=O)cc1
→ -6%	-14%
Nc1ccccc1C(=O)N/N=C1\C2CN3CCN(C2)CC1(c1ccccc1)C3
→ -5%	-3%
CCOc1ccc(C(=O)NCC(=O)Nc2ncccc2C)cc1OCC
→ -3%	-14%
O=C(Cn1c(=O)c2ccccc2n2nncc12)Nc1cccc(F)c1
→ 2%	3%

Record cards, as listed above. Order of values: Vaccinia mCherry, VACV Venus inh
CCn1c(=NC(=O)CS(=O)(=O)c2ccccc2)sc2cccc(OC)c21 as listed: i, -18%
CCCCCCSc1ccc([C@@H]2[C@@H]3C(=O)N(CC)C(=O)[C@@H]3[C@]3(C(=O)OC)CCCCN23)cc1OC as listed: -16%, ?
COc1ccc(NC(=S)NNC(=O)c2ccccc2OC(F)F)cc1 as listed: -27%, -21%
Cc1ccc(NC(=O)CCc2nnc3n(CC(C)C)c(=O)c4ccccc4n23)cc1C as listed: i, -19%
COc1cccc2cc(-c3nnc(-c4ccccc4)o3)c(=O)oc12 as listed: -9%, -18%
